H5N1 antiviral: MDCK cell protection from H5N1 avian flu. hit rate 0.07% among 96,000. cytopathic effect, luminescence, 72 h; active compounds read high; no value below 0 was filed and about half of the inactive calls have no number; reference of the scale not given here. AID 740. inhibition, % at 50 µM; in the data active means inhibition above about 25%
Active calls of the source: *; i = inactive. These rows are one share of the data (hit frequency here may not be typical).

SMILES | H5N1 antiviral
CCCn1c(-c2cccs2)nc2nc3ccccc3nc21 | i
COC1(OC)N=C(N)C2(C#N)C(c3cccc(Oc4ccccc4)c3)C12C#N (configuration not stated) | i
Cc1onc(-c2ccccc2)c1C(=O)Nc1ccc(S(=O)(=O)N2CCCCC2)cc1 | i
O=C(CCc1ccc(S(=O)(=O)NCc2ccccc2)cc1)N1CCN(Cc2ccc3c(c2)OCO3)CC1 | 3.4
CCOc1ccc(C(=O)NC2CCN(C(=O)NCc3ccccc3)CC2)cc1 | i
O=C(C1CCN(S(=O)(=O)c2cccc3cccnc23)CC1)N1CCN(C2CCCCC2)CC1 | 1.4
CCC(=O)N[C@@H]1CC(C(C)(C)NC(=O)CC)CC=C1C (some centres not stated) | 0.1
CC1(C)CC(O)(CCNCc2ccc3c(c2)OCO3)CCO1 (configuration not stated) | i
NC(=O)c1c(NC(=O)CSc2nnc(-c3ccco3)n2N)sc2c1CCCC2 | i
COC(=O)c1ccc(NC2(C#N)C(=O)Nc3ccccc32)cc1 (configuration not stated) | i
COc1ccc(-n2c3c(cc(C(=O)NC4CCSC4=O)c2=O)C(=O)CC(C)(C)C3)cc1 (configuration not stated) | 1.8
O=c1cc(Nc2ccc3c(c2)OCO3)[nH]c(=O)n1-c1ccc(Br)cc1 | 0.9

(more compounds)
SMILES | H5N1 antiviral
OCC(C#CCN1CCCCC1)NCc1ccccc1 (configuration not stated) | 0.6
COc1ccc(S(=O)(=O)Nc2ccccc2C(=O)NCc2ccco2)cc1 | i
CC(C)OC(=O)C1C2C=CC3(CN(CC4CCCO4)C(=O)C13)O2 (configuration not stated) | i
COc1ccc2[nH]c(C(=O)O)c(NS(=O)(=O)c3ccc(Cl)s3)c2c1 | i
Cc1[nH]c2ccc(F)cc2c(=O)c1SC(F)(F)C(F)C(F)(F)F (configuration not stated) | i
CN(C)C(=O)NC(Nc1ccc(Cl)cc1Cl)C(Cl)(Cl)Cl (configuration not stated) | 5.5
Nc1nc(SCc2ccc(Cl)cc2)ns1 | i
Clc1ccccc1CN(Cc1ccccc1)c1ncnc2nc[nH]c12 | 1.4
CC(C)[C@H](NC(=O)NC1CCCc2ccccc21)C(=O)O (some centres not stated) | i
CC(C)c1ccc(Nc2cnn(C34CC5CC(CC(CC(=O)O)(C5)C3)C4)c(=O)c2Cl)cc1 | i
Cc1ccc(C(=O)Nc2cc(C)c(OCC(=O)N3CCOCC3)c(C)c2)cc1 | 0.5
CCCCc1ccc(NC(=O)CN2NS(=O)(=O)c3ccccc3C2=O)cc1 | 0.6

Next entries follow.
SMILES | H5N1 antiviral
CN(c1ccccc1)S(=O)(=O)c1ccc(NC(=O)C2CCCCC2C(=O)O)cc1 (configuration not stated) | i
CC(=O)N(Cc1cccs1)C1CCOC(C)(C)C1 (configuration not stated) | 1.1
COc1ccc(-c2nc3c4ccccc4[nH]c(=O)n3n2)cc1 | i
COc1ccccc1N1CCN(C(=O)Cn2nc(C(F)(F)F)c3c2CCC3)CC1 | i
Cc1ccc(C(=O)c2ccc([N+](=O)[O-])cc2)cc1 | 0.9
CCC(C)NC(=O)C1c2cc(OC)c(OC)cc2C(=O)N(C)C1c1cccs1 (configuration not stated) | i
Cc1ccc(N=Nc2c(N)[nH]n3c(=O)c4c(nc23)CCCC4)cc1 | 1.5
O=C(CSCc1ccc(Cl)cc1)N/N=C/c1ccc(OCC(=O)Nc2ccccc2)cc1 | 1.2
CCc1nc(SCC(=O)N2CCN(C(=O)c3ccco3)CC2)c2c3c(sc2n1)CCCC3 | 0.8
Cc1cccc(C(=O)NC(=S)Nc2ccc(S(=O)(=O)N(C)c3ccccc3)cc2)c1 | 2.2
Cc1cc(C(=O)Nc2nnc(C3CCCCC3)s2)no1 | 0.0
CCc1nnc(SCc2ccc(OC(C)C)cc2)n1N | 0.7

Further structures follow:
SMILES | H5N1 antiviral
COc1ccc(OC)c(NC(=O)COC(=O)CNC(=O)c2ccc(OC)c(OC)c2)c1 | 0.6
O=C(Nc1cccc(NS(=O)(=O)c2ccc(S(=O)(=O)NC3CC3)cc2)c1)c1ccccn1 | 1.2
Cc1cc(NC(=O)CSc2ccc3nnc(-c4cccc(F)c4)n3n2)no1 | 0.3
O=C(Nc1nnc(-c2ccccc2)s1)c1cc(S(=O)(=O)N2CCOCC2)c(Cl)cc1Cl | 0.3
CCn1nnnc1SCC(=O)c1ccc(NC(C)=O)cc1 | i
Cc1c(NC(=S)NC(=O)C(c2ccccc2)c2ccccc2)cccc1C(=O)O | 0.5
COc1ccc(CCNC(=O)CCn2cccc2)cc1OC | i
CCOC(=O)C(C)Oc1ccc(=O)n(-c2ccccc2)n1 (configuration not stated) | 0.1
COC(=O)c1nn(-c2ccc(OC)cc2)c(=O)cc1Oc1ccccc1 | i
Cc1cc(=O)[nH]c(SCC(=O)NCc2ccco2)n1 | i
CCn1c(SCC(=O)OC)nc2sc3c(c2c1=O)CCC3 | 0.5
CCOc1ccc(C(CC(=O)O)NC(=O)COc2ccccc2)cc1 (configuration not stated) | 0.4

(further entries)
SMILES | H5N1 antiviral
COC(=O)c1sc2cc(C(F)(F)F)cnc2c1-c1ccccc1 | 0.1
CCOC(=O)c1sc(NC(=O)C2C3C=CC(C3)C2C(=O)O)nc1C (configuration not stated) | 0.2
Cc1cc(S(=O)(=O)N2CCN(c3ccccc3O)CC2)c(C)s1 | 1.9
Cc1ccc(Cn2c(=N)n(CC(O)c3ccco3)c3ccccc32)cc1 (configuration not stated) | i
CCNC(=O)c1c(O)c2ccccc2[nH]c1=O | 0.5
O=C(NCCN1CCOCC1)c1ccc(CS(=O)(=O)c2c(Cl)cccc2Cl)o1 | 1.9
Cn1c(COc2ccccc2)nnc1SCCN1CCOCC1 | 0.9
Cc1ccc(N2C(=O)[C@@H]3[C@H](C2=O)[C@H]2C=CC=NN2[C@@H]3C(=O)Nc2ccc(Cl)cc2)cc1 | i
COc1ccc(CNC(=O)c2cc(-c3ccccc3OC)on2)cc1 | 0.3
Cn1c(/C(C#N)=C/Nc2ccccn2)nc2ccccc21 | 2.5
CC(C)c1ccc(-c2c(C#N)c(N)nc(SCC(=O)N3CCCCCC3)c2C#N)cc1 | i
Fc1cc(F)c2nc(N3CCCCC3)sc2c1 | i

Later entries:
SMILES | H5N1 antiviral
CCCc1nc(SCC(=O)Nc2nnc(CC)s2)c2c(C)c(C)sc2n1 | 0.7
c1nc2sc3c(c2c2nnnn12)CCC3 | 0.4
COc1cc(OC)c(C#N)c(S(=O)Cc2ccccc2)c1 (configuration not stated) | 0.8
O=C(C1CCCN(Cc2cccnc2)C1)N1CCCCC1 (configuration not stated) | i
CSCCC1NC2(C(=O)Nc3ccc(Cl)cc32)[C@@H]2C(=O)N(C3CCCC3)C(=O)[C@H]12 (some centres not stated) | i
COc1cc(C(=O)N2CCC(n3cnc4cc(F)ccc43)CC2)cc(OC)c1OC | 0.7
O=c1c2[nH]c3ccc(Br)cc3c2ncn1CCCn1ccnc1 | i
CCOc1ncccc1C(=O)Nc1ccc(Cl)cc1 | i
CCOc1ccccc1Nc1nnc(C)c(=O)[nH]1 | i
CCCCCNc1nc(NCCCO)c(C#N)c2c1CN(C)CC2 | i
On1cnnc1-c1ccccc1 | i
CCCn1c(N)c(C(=O)CSc2nc(C)cs2)c(=O)n(C)c1=O | 0.5

(cont.)
SMILES | H5N1 antiviral
CCOc1ccc2nc(NC(=O)c3ccc(S(=O)(=O)N4CCOCC4)cc3)sc2c1 | i
c1ccc(COc2ccc(Oc3nc(N4CCCCC4)nc(N4CCOCC4)n3)nn2)cc1 | 4.4
Cc1ccc2[nH]c(=O)c(CN(Cc3ccc4c(c3)OCO4)Cc3nnnn3Cc3ccco3)cc2c1 | i
Clc1ccc(-n2nnnc2SCc2cn3ccccc3n2)cc1 | 0.8
c1coc(CNc2ncnc3ccccc23)c1 | 3.8
CCN1C(=O)CSc2ccc(C(=O)NC3CCCCC3)cc21 | i
CSc1nsc(NC(=O)Cc2ccccc2)n1 | 0.4
CC1Cc2ccccc2N1C1=NS(=O)(=O)c2ccccc21 (configuration not stated) | 0.2
COc1cccc(NC(=O)N[C@@H](Cc2ccccc2)C(=O)O)c1 | 0.2
Fc1cccc(Nc2nc3ccccc3n3nnnc23)c1 | 0.9
c1ccc(C2NCc3ccccc3-n3cccc32)cc1 (configuration not stated) | i
Cc1ccc2cc(CN(Cc3ccc(F)cc3)Cc3nnnn3C3CCCC3)c(=O)[nH]c2c1 | i

(next part)
SMILES | H5N1 antiviral
C=CCn1c(-c2ccccc2)ccc(C#N)c1=O | i
Cc1ccc(C(=O)Nc2c(C(=O)N3CCOCC3)cnn2-c2ccccc2)cc1 | 0.2
CN(c1ccccc1)c1ccc(/C=c2\s/c(=C(/C#N)C(=O)C(C)(C)C)n(Cc3ccco3)c2=O)cc1 | i
CCc1c(C)c(C#N)c2nc3ccccc3n2c1NCC1CCCO1 (configuration not stated) | 8.6
CCCOc1ccc(C(=O)CCN2CCCCC2)cc1 | i
CS(=O)(=O)N1CCN(c2ccccc2NC(=O)c2ccc(-c3ccc(Cl)cc3Cl)o2)CC1 | 2.2
CC1=CC2(C#N)C3(N=C(N)C2(C#N)C(c2ccccc2)N1)OCCO3 (configuration not stated) | 0.6
O=C(CNC(=O)c1cc2c(s1)CCC2)Nc1ccccc1Br | 0.1
COc1ccc(C(=O)NC(=O)Nc2ncccc2C)cc1 | i
COc1cc(NC(=O)c2csc3c2CCCC3)ncn1 | 0.2
O=C(CSc1ccc(Cl)cc1)Nc1ccc(N2CCN(C(=O)c3ccco3)CC2)cc1 | i
COCCn1c(N)c(S(=O)(=O)c2cccs2)c2nc3ccccc3nc21 | 0.3

Molecules shown so far with an aryl methoxy group (15):
SMILES | H5N1 antiviral
COc1ccc(-n2c3c(cc(C(=O)NC4CCSC4=O)c2=O)C(=O)CC(C)(C)C3)cc1 (configuration not stated) | 1.8
COc1ccc(S(=O)(=O)Nc2ccccc2C(=O)NCc2ccco2)cc1 | i
COc1ccc2[nH]c(C(=O)O)c(NS(=O)(=O)c3ccc(Cl)s3)c2c1 | i
COc1ccc(-c2nc3c4ccccc4[nH]c(=O)n3n2)cc1 | i
COc1ccccc1N1CCN(C(=O)Cn2nc(C(F)(F)F)c3c2CCC3)CC1 | i
CCC(C)NC(=O)C1c2cc(OC)c(OC)cc2C(=O)N(C)C1c1cccs1 (configuration not stated) | i
COc1ccc(OC)c(NC(=O)COC(=O)CNC(=O)c2ccc(OC)c(OC)c2)c1 | 0.6
COc1ccc(CCNC(=O)CCn2cccc2)cc1OC | i
COC(=O)c1nn(-c2ccc(OC)cc2)c(=O)cc1Oc1ccccc1 | i
COc1ccc(CNC(=O)c2cc(-c3ccccc3OC)on2)cc1 | 0.3
COc1cc(OC)c(C#N)c(S(=O)Cc2ccccc2)c1 (configuration not stated) | 0.8
COc1cc(C(=O)N2CCC(n3cnc4cc(F)ccc43)CC2)cc(OC)c1OC | 0.7
COc1cccc(NC(=O)N[C@@H](Cc2ccccc2)C(=O)O)c1 | 0.2
COc1ccc(C(=O)NC(=O)Nc2ncccc2C)cc1 | i
COc1cc(NC(=O)c2csc3c2CCCC3)ncn1 | 0.2

Carrying on.
SMILES | H5N1 antiviral
COc1ccc(N(Cc2cc3ccccc3[nH]c2=O)C(=O)C2CCCO2)cc1 (configuration not stated) | 0.4
O=C(CC(C(=O)N1CCc2ccccc21)n1ccnc1)NCc1cccnc1 (configuration not stated) | i
Cc1ccc(-n2c(SCC(=O)Nc3ccc4c(c3)OCO4)nnc2-c2ccoc2C)cc1 | i
CCCOc1ccc(N2C(=O)CC(N(CCC)C(=O)CCC(=O)O)C2=O)cc1 (configuration not stated) | i
CCN(CC)S(=O)(=O)c1ccc(Cl)c(C(=O)Oc2cccc(-c3cnc4ccccc4n3)c2)c1 | 1.0
O=C(O)c1cccc(N2CCCCS2(=O)=O)c1 | i
CCC(=O)Nc1ccc(C(=O)OCC(=O)c2ccc(C)c([N+](=O)[O-])c2)cc1 | 0.7
CCOC(=O)c1sc(NC(=O)CSc2nc(C)cc(C)c2C#N)c(C#N)c1C | i
CCN1CCN(C(=O)c2cc3c(-c4ccc(Cl)cc4)nn(C)c3s2)CC1 | i
Cc1ccccc1CSc1nnc(NC(=O)C2COc3ccccc3O2)s1 (configuration not stated) | i
CC(C)C1Cc2[nH]c(=O)c(C(=O)O)cc2CO1 (configuration not stated) | i
Cc1ccc(-c2cc(-c3ccc(C)o3)nc(N)c2C#N)cc1 | 0.6

New compounds follow
SMILES | H5N1 antiviral
CCN(CC(=O)NC1CCS(=O)(=O)C1)C(=O)C(c1ccccc1)c1ccccc1 (configuration not stated) | 0.3
N#CC1=C(N)N2C(=C(C#N)C13CCN(Cc1ccccc1)CC3)Nc1ccccc12 | 0.1
COC(=O)c1ccc(NC(=O)c2ccccc2NS(=O)(=O)c2ccccc2)cc1 | 0.9
COc1cccc(Oc2coc3c(CN4CCOCC4)c(O)ccc3c2=O)c1 | 0.2
COc1ccc(C(=O)NNC(=O)CSc2nnc(COc3ccc4ccccc4c3)n2C)cc1 | 1.5
Cc1cc(NC(=O)C2CC(c3ccc(F)cc3)=NO2)n(-c2ccccc2)n1 (configuration not stated) | 0.6
COC(=O)CN1C(=O)C(O)(CC(=O)c2ccc(C)cc2)c2cc(Br)ccc21 (configuration not stated) | 2.3
CCN(CC)S(=O)(=O)c1ccc(NC2c3ccccc3C(=O)N2Cc2ccc3c(c2)OCO3)cc1 (configuration not stated) | i
O=C1c2ccccc2C(=O)N1c1cccc(-c2nc3ccccc3o2)c1 | i
COCCNC(C)C(=O)Nc1ccc(Br)cc1 (configuration not stated) | i
COc1cccc(N/C(SC)=C(/C#N)C(N)=O)c1 | 0.6
CCN(CC)c1ccc2cc(C(C)=O)c(=O)oc2c1 | i

Carrying on:
SMILES | H5N1 antiviral
COc1ccc(C(C(=O)NC2CCCC2)N(C(=O)c2snc(-c3ccc(F)cc3)c2N)c2ccc(F)cc2)cc1 (configuration not stated) | i
CCN(CCNC(=O)C1CCCN(Cc2nc(-c3ccc(OC)cc3)oc2C)C1)c1ccccc1 (configuration not stated) | i
Cc1sc2nc(CN3CCN(S(=O)(=O)c4cccc5nonc45)CC3)[nH]c(=O)c2c1C | 1.1
O=C(CCCn1c(SCC(=O)NCC2CCCO2)nc2ccccc2c1=O)NCC1CCCO1 (configuration not stated) | i
COc1ccc(OCCSc2ncnc3nc[nH]c23)cc1 | 2.0
